# RGS16-Gao = modulators of RGS16 binding to Galphao, primary screen, biochemical, human proteins, multiplexed bead flow cytometry | Regulator of G-protein signaling 16 (Homo sapiens) + Guanine nucleotide-binding protein … | bead-based flow cytometry RGS16-Galphao binding, fluorescence; actives lie on both sides | binding response (% of control), % at 10 µM | 0.38% of 220,000 active | AID 1441, 2008;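 active = below 25% or above 175%, edge rows of some plates excepted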;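 also: Galphao activated by GDP with aluminum fluoride before binding; 100% = wells without compound and 0% = beads without RGS; some results beyond the cut were filed as inactive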
# Target sequence (O15492 whole entry, looked up): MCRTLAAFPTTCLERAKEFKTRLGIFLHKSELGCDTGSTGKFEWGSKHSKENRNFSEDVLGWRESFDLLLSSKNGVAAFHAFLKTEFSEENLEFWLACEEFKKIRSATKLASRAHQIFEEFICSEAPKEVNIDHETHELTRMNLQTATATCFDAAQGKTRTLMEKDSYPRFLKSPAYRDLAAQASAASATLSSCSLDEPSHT
# Target sequence (P09471 whole entry, looked up): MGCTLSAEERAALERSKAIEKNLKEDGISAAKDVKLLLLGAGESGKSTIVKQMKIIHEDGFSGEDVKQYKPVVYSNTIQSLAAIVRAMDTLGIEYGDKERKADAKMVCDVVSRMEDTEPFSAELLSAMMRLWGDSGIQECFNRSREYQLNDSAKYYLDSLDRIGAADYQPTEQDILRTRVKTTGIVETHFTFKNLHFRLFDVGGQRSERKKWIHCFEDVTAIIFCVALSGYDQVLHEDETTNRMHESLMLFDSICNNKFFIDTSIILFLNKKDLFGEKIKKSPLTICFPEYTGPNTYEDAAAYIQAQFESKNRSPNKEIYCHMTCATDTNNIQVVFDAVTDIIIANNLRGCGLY
# PKD1 kinase inh = inhibitors of human PKD1 kinase, biochemical, fluorescence polarization | Serine/threonine-protein kinase D1 (Homo sapiens), Q15139 | PKD1 kinase fluorescence polarization assay | inhibition, %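 (about 10 µM by stock and volumes)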 | 0.056% of 200,000 active | AID 797, 2007;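 active = inhibition of 50% or more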;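 also: controls were vehicle for no effect and a reference inhibitor for full effect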
# GALR2 agonist = GALR2 receptor agonists, primary screen, cell-based; Galanin receptor type 2 (Homo sapiens), O43603; GALR2-expressing cells, agonist activation read-out; activation, %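 (tested at 5 µM)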; 0.48% of 140,000 active;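 active = above mean plus 3 SD of all compounds, about 5% in these data, not always enough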;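 also: 0% = vehicle buffer wells and 100% = reference agonist at full effect; tested in CHO reporter cells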
# Target sequence (O43603 whole entry, looked up): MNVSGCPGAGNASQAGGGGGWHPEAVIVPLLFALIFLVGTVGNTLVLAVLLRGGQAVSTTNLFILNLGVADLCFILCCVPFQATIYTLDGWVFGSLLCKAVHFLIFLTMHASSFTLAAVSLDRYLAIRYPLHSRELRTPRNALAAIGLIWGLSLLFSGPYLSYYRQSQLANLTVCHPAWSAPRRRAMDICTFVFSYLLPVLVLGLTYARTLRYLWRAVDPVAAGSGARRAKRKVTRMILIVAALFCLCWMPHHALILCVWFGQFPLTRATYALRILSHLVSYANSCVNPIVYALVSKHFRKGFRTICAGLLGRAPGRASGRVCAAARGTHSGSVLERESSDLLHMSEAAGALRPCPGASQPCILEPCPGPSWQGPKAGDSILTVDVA
# INS promoter inh = inhibitors of insulin promoter-driven GFP, primary screen, imaging, TRM-6 cells (human fetal islet line), eGFP reporter, cell count. reporter expression induced with tamoxifen. inhibition, % at 2 µM. 0.9% of 130,000 active. AID 1273, 2008;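 active = inhibition above the mean plus 3 SD, with well images judged a real hit on visual review, cut at about 60% in these data, passing the limit was not always enough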
# HSV augment = enhancers of HSV replication in host cells, fold increase, host cell viability; HSV replication augmentation in cells; maximum fold increase; 0.005% of 220,000 active; AID 1956, 2009;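 active = peak rise of 1.5-fold or more in the series; tested in PC3 cells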;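 also: first round at 10 µM; read as green reporter fluorescence; hits show the peak of a series up to 25 µM; 1 = signal of infected wells without compound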
# INS promoter inh cell count = second read-out of INS promoter inh, no call of its own (marks repeat the call); normalized cell count, %; measured here: cell count, toxicity; reference of the scale not given here;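 cells exposed to compound for 48 h; stained nuclei by imaging scaled within each plate; lower means fewer cells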
# HSV augment primary fold = also measured in HSV augment; calls as there; fold increase; compound at 10 µM; measured here: primary screen fold increase 10 uM; tested in PC3 cells;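 GFP signal in the first replicate; 1 = infected wells without compound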
# * hit, by the source's call; i = inactive; x = not tested or not shown.
No.	compound	PKD1 kinase inh	INS promoter inh	INS promoter inh cell count	GALR2 agonist
1	Nc1ncnc2c1ncn2CCN1CCOCC1	-11.7	18.2	90.3	-2.4
2	CCCCn1nnnc1SCC(=O)NNC(=O)c1ccco1	-6.1	x	x	x
3	CCCCNC(=O)Nc1ccccc1C(=O)NCCC	-14.4	35.3	95.2	-2.5
4	O=C(N/N=C/c1cccc(F)c1)c1ccc(Cl)cc1	-8.7	x	x	x
5	Cc1[nH]c2ccccc2c1C(=O)CSCC(=O)O	5.5	x	x	-1.4
6	C/C(=C\C(=O)c1ccc(Cl)cc1)Nc1ccc(N2CCOCC2)cc1	-4.3	16.7	85.9	0.2
7	C/C(=N\NC(=O)c1ccco1)c1ccc(NC(=O)c2cccs2)cc1	-2.2	19.2	163.2	-1.9
8	Cc1cccc(OCCN2CSC(=S)N(C)C2)c1	-10.1	x	x	-0.3
9	CCN(CC)C(=O)c1[nH]cnc1C(=O)Nc1ccc(OC)cc1	x	x	x	x
10	COC(=O)C1CCN(c2c([N+](=O)[O-])cc(C(F)(F)F)cc2[N+](=O)[O-])CC1	4.7	6.2	110.9	-3.4
11	CC(=O)Nc1nc(C)c(C(C)C)s1	x	x	x	x
12	S=C(Nc1ccc2nsnc2c1)NC1CCCCC1	-4.2	41.0	113.2	-0.6
13	Cc1ccc(-n2c(C)cc(/C=N/NC(=O)c3ccncc3)c2C)cc1C	-3.7	36.8	139.1	x
14	CCOC(=O)C1(N(CC)CC)Sc2cc(C)ccc2NC1=O (configuration not stated)	-10.5	-18.2	97.7	-1.8
15	COC(=O)c1c(-c2ccc(F)cc2)noc1N	-5.9	6.2	142.9	-2.0

No.	HSV augment primary fold	HSV augment	RGS16-Gao
1	0.93	i	103.3
2	0.99	i	103.6
3	0.86	i	106.9
4	0.92	i	108.3
5	1.04	i	99.7
6	x	x	99.1
7	0.96	i	89.7
8	0.89	i	106.6
9	0.95	i	97.9
10	1.01	i	105.7
11	0.8	i	101.5
12	1.09	i	41.8
13	0.99	i	100.6
14	x	x	99.2
15	0.9	i	101.6

# 11 structures from above, ordered by SMILES length, falling:
No.	compound	PKD1 kinase inh	INS promoter inh	INS promoter inh cell count	GALR2 agonist
10	COC(=O)C1CCN(c2c([N+](=O)[O-])cc(C(F)(F)F)cc2[N+](=O)[O-])CC1	4.7	6.2	110.9	-3.4
13	Cc1ccc(-n2c(C)cc(/C=N/NC(=O)c3ccncc3)c2C)cc1C	-3.7	36.8	139.1	x
7	C/C(=N\NC(=O)c1ccco1)c1ccc(NC(=O)c2cccs2)cc1	-2.2	19.2	163.2	-1.9
9	CCN(CC)C(=O)c1[nH]cnc1C(=O)Nc1ccc(OC)cc1	x	x	x	x
14	CCOC(=O)C1(N(CC)CC)Sc2cc(C)ccc2NC1=O (configuration not stated)	-10.5	-18.2	97.7	-1.8
4	O=C(N/N=C/c1cccc(F)c1)c1ccc(Cl)cc1	-8.7	x	x	x
2	CCCCn1nnnc1SCC(=O)NNC(=O)c1ccco1	-6.1	x	x	x
5	Cc1[nH]c2ccccc2c1C(=O)CSCC(=O)O	5.5	x	x	-1.4
8	Cc1cccc(OCCN2CSC(=S)N(C)C2)c1	-10.1	x	x	-0.3
3	CCCCNC(=O)Nc1ccccc1C(=O)NCCC	-14.4	35.3	95.2	-2.5
1	Nc1ncnc2c1ncn2CCN1CCOCC1	-11.7	18.2	90.3	-2.4

No.	HSV augment primary fold	HSV augment	RGS16-Gao
10	1.01	i	105.7
13	0.99	i	100.6
7	0.96	i	89.7
9	0.95	i	97.9
14	x	x	99.2
4	0.92	i	108.3
2	0.99	i	103.6
5	1.04	i	99.7
8	0.89	i	106.6
3	0.86	i	106.9
1	0.93	i	103.3

# New compounds follow
No.	compound	PKD1 kinase inh	INS promoter inh	INS promoter inh cell count	GALR2 agonist
16	COc1ccc(N(C(=O)c2ccco2)S(=O)(=O)c2cccs2)cc1	-6.9	-164.7	71.5	-0.7
17	O=C(NCc1ccco1)c1cc(-c2ccccn2)nc2ccccc12	-0.2	x	x	-2.3
18	Cc1ccc(/C=N/NC(=O)c2cccs2)o1	7.3	-7.9	136.2	-2.0
19	CCOc1cc(/C=N/Nc2nc(N3CCCCC3)nc(N3CCCCC3)n2)ccc1OC(=O)c1ccco1	-0.1	-27.8	101.4	x
20	COc1ccc(NS(=O)(=O)c2cc(NC(=O)c3cc(F)c(F)c(F)c3F)ccc2N2CCCC2)cc1	x	x	x	x
21	Cc1csc(-c2cnn(-c3ccccc3)c2NC(=O)c2ccc(C(F)(F)F)cc2)n1	0.5	18.8	99.1	-4.1
22	Cc1ccc(Nc2nc3ccccc3nc2-n2nc(C)cc2C)cc1	-7.2	x	x	2.3
23	CN(C)C(=O)c1nnc(Cc2ccc(Cl)cc2)o1	-4.3	-40.0	84.0	-0.2
24	CSc1ccccc1NC(=O)COc1ccccc1C	-0.9	x	x	x
25	O=C(CNC(=O)c1ccc(-c2ccccc2)cc1)Nc1ccc(S(=O)(=O)Nc2ncccn2)cc1	x	x	x	x
26	Cc1nc2nc(-c3ccc(Cl)cc3)nn2c(C)c1Cl	-2.5	-10.8	76.7	-0.3
27	Cc1noc(NS(=O)(=O)c2ccc(N3C(=O)c4ccccc4C3=O)cc2)c1C	-7.7	-16.3	79.7	-1.1
28	O=C(Nc1ccc(NC(=O)c2cc3ccccc3o2)cc1)c1ccc2c(c1)OCCO2	-9.8	-16.7	126.4	x
29	CC(=O)Nc1ccc(NC(=O)Nc2ccc(C)c(C)c2)cc1	-3.4	x	x	x
30	Cc1ccc(OCC(=O)N(Cc2ccccc2)C(C)(C)C)c([N+](=O)[O-])n1	-0.3	6.5	113.6	-1.9

No.	HSV augment primary fold	HSV augment	RGS16-Gao
16	0.96	i	104.0
17	0.93	i	113.3
18	0.95	i	104.1
19	0.91	i	102.6
20	0.9	i	99.4
21	0.993	i	106.3
22	1	i	98.4
23	x	x	99.5
24	1.01	i	103.1
25	1.06	i	106.3
26	x	x	97.8
27	0.98	i	106.9
28	0.87	i	99.2
29	0.86	i	95.9
30	0.99	i	103.3

# Next structures.
No.	compound	PKD1 kinase inh	INS promoter inh	INS promoter inh cell count	GALR2 agonist
31	CCOC(=O)c1c(C)n(C)c2ccc(OCC(O)CN3C(=O)c4ccccc4S3(=O)=O)cc12 (configuration not stated)	-6.7	-6.5	51.0	9.2
32	CCOC(=O)C1CCCN(C(=O)CN2C(=O)COc3ccc(C(C)(C)C)cc32)C1 (configuration not stated)	-12.2	x	x	-0.1
33	CCN(CC)CCNc1ncnc2c1sc1nc(N3CCCC3)c3c(c12)CC(C)(C)OC3	6.6	x	x	x
34	CC1Oc2ccccc2C=C1/C=N/NC(=O)c1ccccc1 (configuration not stated)	4.8	-21.4	54.4	-0.7
35	CC(C)(C)N(Cc1cc2ccccc2[nH]c1=O)C(=O)c1cccnc1	-0.8	64.3	99.5	-2.3
36	Cc1ccccc1C1CC(c2ccc(F)cc2)Nc2nc(N)nn21 (configuration not stated)	-7.2	x	x	-0.5
37	COc1cc(/C=C(\C#N)C(N)=O)ccc1OS(=O)(=O)c1ccc(C)cc1	-1.5	38.8	70.8	-0.1
38	CCN(C(=O)COC(=O)c1ccccc1NC(=O)c1ccco1)C1CCS(=O)(=O)C1 (configuration not stated)	3.9	-25.0	143.6	x
39	CCN1CCN(CCC(=O)Nc2ccc3c(c2)OCO3)CC1	-3.7	48.6	104.7	-1.1
40	Cc1ccc(NC(=S)Nc2ccc3nc(-c4ccccn4)c(-c4ccccn4)nc3c2)cc1C	1.3	-5.3	57.0	-0.5
41	CCCCOc1ccc(/C(N)=N/O)cc1	-15.5	x	x	-1.4
42	N#Cc1ccccc1OCC(=O)N1CCc2ccccc2C1	1.6	2.7	65.9	x
43	CCN(CC(=O)NCc1cccs1)C(=O)c1ccccc1Cl	-6.2	-13.5	71.3	x
44	Cc1cccc(C(OC(=O)c2ccco2)C(=O)NCc2ccccc2)n1 (configuration not stated)	0.3	26.3	94.3	1.5
45	COc1ccc(/C=N/N2CCOCC2)cc1O	-4.1	-15.4	107.8	-1.1

No.	HSV augment primary fold	HSV augment	RGS16-Gao
31	0.87	i	101.2
32	x	x	102.1
33	0.72	i	104.3
34	1.01	i	89.2
35	0.83	i	102.8
36	1.07	i	108.5
37	1.11	i	109.6
38	0.93	i	91.3
39	0.94	i	98.0
40	1.26	i	118.6
41	0.85	i	104.6
42	0.88	i	90.8
43	1.16	i	103.8
44	1.02	i	57.3
45	0.89	i	101.6

# Other compounds follow:
No.	compound	PKD1 kinase inh	INS promoter inh	INS promoter inh cell count	GALR2 agonist
46	COC(=O)c1ccc(NC(=O)N2CCCC(C(=O)c3ccccc3OC)C2)cc1 (configuration not stated)	0.6	x	x	x
47	Cc1ccc2sc(N(CCCN(C)C)C(=O)c3nc4ccccc4s3)nc2c1C	-1.7	x	x	x
48	O=C(Oc1c(Cl)cc(Cl)c2cccnc12)N1CCCCC1	2.5	23.3	61.0	-0.9
49	c1n[nH]c(SCCCCSc2ncn[nH]2)n1	3.1	48.3	128.0	0.0
50	O=c1cc(-c2ccc3c(c2)OCCO3)oc2ccc(Cl)cc12	3.5	-26.5	101.5	-0.2
51	NC(N)=NCCC[C@H](NC(=O)OCc1ccccc1)C(=O)O	-8.9	42.9	97.5	0.3
52	CC(C)CC(C(=O)O)C(C)CC(=O)Nc1ccn(-c2ccccc2)n1 (configuration not stated)	-5.3	-21.1	107.6	-2.3
53	CCCn1c(SCC(=O)NCc2ccccc2)nnc1-c1ccncc1	2.8	x	x	0.3
54	COc1cccc(NC(=O)CN2C(=O)NC(C)(CCC(C)C)C2=O)c1 (configuration not stated)	-4.8	x	x	x
55	COc1ccc([N+](=O)[O-])cc1NC(=S)Nc1ccccc1	-2.8	-23.6	100.7	-1.0
56	CCOC(=O)C1=C(O)CSC1=Nc1ccc(Cl)cc1	-6.1	x	x	-0.5
57	O=C(CSc1nnc(CNC(=O)c2cccs2)o1)NCc1ccc(F)cc1	-1.1	-25.0	78.8	-2.4
58	CCc1nn(C)c(-c2n[nH]c(=S)n2N)c1Cl	7.8	x	x	-0.5
59	COC1=C(Nc2ccc(O)cc2)C(=O)c2ccccc2C1=O	2.7	12.0	85.2	0.0
60	O=C(Nc1ccc2c(c1)CCC2)c1ccccc1Br	-7.2	x	x	x

No.	HSV augment primary fold	HSV augment	RGS16-Gao
46	0.92	i	102.4
47	1.01	i	99.8
48	1.01	i	97.4
49	0.83	i	94.0
50	1.19	i	98.7
51	1.22	i	114.8
52	0.99	i	100.7
53	0.95	i	95.9
54	0.9	i	95.6
55	0.99	i	49.5
56	0.78	i	102.2
57	1.05	i	105.8
58	0.83	i	99.2
59	0.97	i	103.5
60	1.01	i	97.3

# Continued:
No.	compound	PKD1 kinase inh	INS promoter inh	INS promoter inh cell count	GALR2 agonist
61	Cc1cccc(C(=O)Nc2cccc(OCC(=O)O)c2)c1	-6.3	x	x	x
62	Cn1c(N)c(C(=O)COC(=O)c2ccc(Cl)nc2)c(=O)n(C)c1=O	-0.7	7.1	138.3	x
63	CC(C)(C)C(=O)/C=c1\[nH]c(=O)/c(=C\c2ccc(F)cc2)s1	-8.2	-25.0	117.5	-0.6
64	CCOC(=O)N1CCC(n2c(SCC(=O)Nc3nccs3)nc3ccsc3c2=O)CC1	4.0	x	x	-0.2

No.	HSV augment primary fold	HSV augment	RGS16-Gao
61	1.05	i	102.8
62	1.03	i	104.1
63	0.92	i	103.4
64	1.01	i	99.3

# Compounds as they come (roughly 1.3% active in at least one column).
